Source: PubChem BioAssay
VCAM-1 up: enhancers of VCAM-1 display on endothelial cells, cell-based, plate reader, pooled HUVEC, TNFa stimulus (AID 455); hit rate 0.2% among 10,000; augmentation, % at 5 µM; HUVEC TNFa-induced VCAM-1 immunofluorescence, plate reader; numbers were filed only for top-ranked candidate wells;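 active = a compound raising TNF-alpha-driven VCAM-1 surface staining, with its hit status upheld on visual or statistical review; inactive = the rest, including hits rejected on review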;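 also: 0% = TNFa with vehicle and 100% = strongest image-checked hit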
Proteasome disasm: inhibitors of ATP-driven 26S proteasome dissociation, primary screen, biochemical, bead-based flow cytometry, GFP-tagged proteasome; anti-FLAG beads, GFP-proteasome disassembly; inhibition of disassembly, % (test concentration not listed); hit rate 0.2% among 24,000;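 active = above 40%; inconclusive = likely self-fluorescent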;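 also: plate controls were ATP control with full disassembly for no effect and ATP-gamma-S intact proteasomes for full effect; higher percent means more bead fluorescence retained so stronger block of disassembly; stock transfer was 100 nL into about 10 µL; wells with too few beads may also be inconclusive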
The depositor's hits bear a star; i = inactive; ? = inconclusive; . = no result given. Some of the compounds tested; rates above refer to the full screens.

SMILES	VCAM-1 up	Proteasome disasm
O=C(CCN1C(=O)c2cccnc2C1=O)NC1CCCCCC1	.	-1.1
CCOCCCNC(=O)C(NC(=O)CNC(C)=O)c1ccc(Cl)cc1 (stereo not given)	.	0.2
CCCC(=O)OCCn1c(Br)nc2c1c(=O)[nH]c(=O)n2C	i	-0.2
CS(=O)(=O)N(Cc1nc2sc3c(c2c(=O)[nH]1)CCCC3)C1CCCCC1	i	1.7
O=S1(=O)C=C(Oc2ccc(F)cc2)c2ccccc21	i	-2.8
CC1=C(C(=O)Nc2ccccn2)C(c2ccccc2)n2ncnc2N1 (stereo not given)	.	-0.1
CCCS(=O)(=O)c1cn2cccc(N)c2c1S(=O)(=O)CCC	.	-1.0
Nc1ccc(-c2nc3ccc(-c4nc5ccccc5o4)cc3[nH]2)cc1	.	0.0
COc1ccc(C(N)=O)cc1N	i	-1.2
Nc1c(C(=O)CCC(=O)O)oc2ccc(Cl)cc12	.	3.7
COc1ccccc1-c1cc(C(=O)Nc2c(F)cc(F)cc2Br)no1	.	?
Cc1ccc2c(c1)c1c(n2CC(O)CNC(CO)(CO)CO)CCCC1 (stereo not given)	.	-2.1
COc1ccccc1-n1cc(C(=O)NCC(=O)N2CCN(c3ccccn3)CC2)c2ccccc2c1=O	.	-0.9
Cc1cccn2c(=O)c3cc(C(=O)NCc4ccccc4)c(=N)n(CCCN4CCOCC4)c3nc12	.	1.2
O=C(NCc1ccco1)C1CC(=O)N(c2ccc(F)cc2)C1 (stereo not given)	i	2.1
Cc1ncoc1C(=O)Nc1ccc(Oc2ccccc2)cc1	.	-0.2
COc1ccc2nc3oc(C(=O)N4CCCCC4)cc3cc2c1	i	0.3
O=S(=O)(c1ccc(F)c(Cl)c1)N1CCCC1	i	-0.6
Cc1ccnc(NC(=O)C2CCN(S(=O)(=O)c3cccc4nsnc34)CC2)c1	.	-0.3
Cc1sc2ncn3ncnc3c2c1C	i	1.4
COc1ccc(C2C(=O)N(C3CCCCC3)CC(=O)N2C2CCCC2)cc1 (stereo not given)	.	-1.1
N=c1c(C(=O)NCc2ccc3c(c2)OCO3)cc2c(=O)n3ccccc3nc2n1Cc1cccnc1	i	27.9
N#CCSc1nc2[nH]ncc2c(=O)n1-c1ccccc1Br	.	-0.5
Nc1nc(CSc2nnnn2-c2ccc(F)c(Cl)c2)nc(N2CCOCC2)n1	.	-0.8
CSc1ccc(CNc2ccccn2)cc1	.	-0.1
Later entries
SMILES	VCAM-1 up	Proteasome disasm
CCn1c(C(=O)NCCCc2ccccc2)cc2sccc21	.	1.3
O=C1CC(c2ccc(F)cc2)C2=C(CCCC2=O)N1 (stereo not given)	.	0.3
CCCOc1ccc(NC(=O)c2c(-c3ccccc3)noc2C)cc1	.	-0.8
CCC(C)NC(=O)CSc1nc2n[nH]c(C)c2c(=N)n1-c1ccc(OC)cc1 (stereo not given)	.	-1.8
CCN(CC)CCCN1C(=O)CSC1c1ccc2c(c1)OCO2 (stereo not given)	.	9.1
CC(C)Oc1cccc(-c2cc(C(=O)N3CCN(S(C)(=O)=O)CC3)c3ccccc3n2)c1	i	0.7
CC(=O)c1ccc(NC(=O)C2CCN(S(=O)(=O)c3cccc4cccnc34)CC2)cc1	i	0.3
O=C(C1CC1)N1CCc2cc(Br)cc(S(=O)(=O)NCc3ccccn3)c21	.	-0.3
COC(=O)CSc1cc(C)nc(NC(C)=O)n1	i	1.9
O=C(Nc1ccc2c(c1)OCCO2)C1CCCN(S(=O)(=O)c2cnc[nH]2)C1 (stereo not given)	i	-0.3
O=c1[nH]c2ccccc2nc1NCCN1CCOCC1	i	-2.9
COc1ccc(C(=O)N2CCN(C3CCCCC3)CC2)c(OC)c1	i	-0.7
Cn1c(=NC(=O)CSCC(=O)N2CCCCC2)sc2ccccc21	.	-0.2
Cc1ccccc1-c1nc(CS(=O)CC(=O)NCc2ccccc2)c(C)o1 (stereo not given)	.	8.6
Cn1nc(C(=O)NC2CCCCCC2)ccc1=O	i	1.3
Cc1ccc2nc(NC(=O)C3CCN(S(=O)(=O)c4cccs4)CC3)sc2c1	.	0.2
Cc1oc(-c2ccc(Cl)cc2)cc1-c1nn2c(-c3ccoc3C)nnc2s1	i	0.0
CCN(CC)C(C(=O)Nc1ccc2c(c1)OCO2)c1ccccc1 (stereo not given)	.	-1.3
O=C(CSc1nnnn1Cc1ccccc1)Nc1ccc2c(c1)OCO2	i	-0.3
O=C(Cn1nc(-c2ccccc2)ccc1=O)NCCN1CCN(Cc2ccccc2)CC1	.	1.1
CC1=NS(=O)(=O)c2cc(Cl)ccc2N1	i	0.5
Cc1noc(C)c1C(=O)N1CCN(C(=O)c2sc3cc(Cl)ccc3c2Cl)CC1	i	0.2
CCOC(=O)c1ccccc1NC(=O)Cn1cnc2c(oc3ccccc32)c1=O	.	0.0
CNC(=O)c1nnn(Cc2ccccc2)c1NC(=O)C(F)(F)F	.	-0.7
Cc1ccc(Cn2nnnc2CN2CCC(O)(c3ccccc3F)CC2)cc1	i	-1.8
More records.
SMILES	VCAM-1 up	Proteasome disasm
COc1ccccc1C(=O)NC(C)C(c1cccs1)N1CCN(C)CC1 (stereo not given)	i	-0.5
COc1ccc(OC)c(C2C(C(=O)O)c3ccccc3C(=O)N2C)c1 (stereo not given)	.	-1.4
Cc1nc2ccccn2c1P(=O)(N1CCCCC1)N1CCCCC1	i	-3.1
CCN(CC)CCCNC(=O)C1c2ccccc2C(=O)N1Cc1ccc(C)cc1 (stereo not given)	.	-0.6
Cc1cccc(-c2cc3nc4c(c(N5CCC6(CC5)OCCO6)n3n2)CCCC4)c1	i	0.5
O=C(C(Cc1ccccc1)n1cccc1)N1CCN(c2ncccn2)CC1 (stereo not given)	.	-1.0
CCCC(=O)NCCCc1nc2ccccc2n1CCC	.	2.9
Cc1ccc2oc(=O)c3cnn(CC(=O)N4CCCc5ccccc54)c3c2c1	i	1.2
Fc1ccc(-c2cc(C(F)(F)F)nc(N3CCCCC3)n2)cc1	.	1.9
Cc1cccn2c(=O)c3cc(C(=O)N4CCc5ccccc54)n(C)c3nc12	.	-0.9
CCOC(=O)CSc1nc(C)c(C(=O)OCC)s1	i	-1.2
Cc1ccc(C)c(Cn2c(=O)n(CCC(=O)NCc3ccco3)c(=O)c3sccc32)c1	i	-1.4
Cc1cccc(-c2nsc(SCC(=O)N3CCCC3)n2)c1	.	1.4
C1CCC2=NCCCN2CC1	i	0.9
COc1cccc(Cn2c(-c3nonc3N)nc3ccccc32)c1	i	4.1
CCS(=O)(=O)N1CCCC(C(=O)NC2CCC(C)CC2)C1 (stereo not given)	.	-0.8
COc1cccc(-n2cc(C(=O)O)c3ccccc3c2=O)c1	.	1.4
Cc1cc(C)cc(C(=O)N2CCC(C(N)=O)CC2)c1	i	14.3
COc1cccc(C(=O)c2cc3ccc(O)cc3oc2=O)c1	.	-2.9
CCOc1ccccc1-c1nc(C(N)=O)c2[nH]c(=O)n(-c3ccccc3)c2n1	.	0.2
Cc1ccc(Cl)cc1NC(=O)C1CCCN(S(=O)(=O)c2c(C)noc2C)C1 (stereo not given)	.	0.1
COc1ccc2oc(=O)c(NC(=O)C3CCCCC3)cc2c1	.	-1.8
COC(=O)c1ccc(C2C(C#N)=C(C)NC3=C2C(=O)CC(C)(C)C3)cc1 (stereo not given)	.	0.6
COc1ccccc1OCCOCCn1cnc2ccccc2c1=O	i	-1.4
C=CCNC(=O)CSc1nc2sc(C)c(C)c2c(=O)[nH]1	i	-0.9

Rewritten with values under each structure: part of the list above
Values run as follows: VCAM-1 up	Proteasome disasm
- Cc1cc(C)cc(C(=O)N2CCC(C(N)=O)CC2)c1
  i	14.3
- COc1cccc(C(=O)c2cc3ccc(O)cc3oc2=O)c1
  .	-2.9

Laid out differently: entries from further up
compound | VCAM-1 up | Proteasome disasm
O=C(CCN1C(=O)c2cccnc2C1=O)NC1CCCCCC1 | . | -1.1
CCOCCCNC(=O)C(NC(=O)CNC(C)=O)c1ccc(Cl)cc1 (stereo not given) | . | 0.2
CCCC(=O)OCCn1c(Br)nc2c1c(=O)[nH]c(=O)n2C | i | -0.2
CS(=O)(=O)N(Cc1nc2sc3c(c2c(=O)[nH]1)CCCC3)C1CCCCC1 | i | 1.7
O=S1(=O)C=C(Oc2ccc(F)cc2)c2ccccc21 | i | -2.8
CC1=C(C(=O)Nc2ccccn2)C(c2ccccc2)n2ncnc2N1 (stereo not given) | . | -0.1
CCCS(=O)(=O)c1cn2cccc(N)c2c1S(=O)(=O)CCC | . | -1.0
Nc1ccc(-c2nc3ccc(-c4nc5ccccc5o4)cc3[nH]2)cc1 | . | 0.0
COc1ccc(C(N)=O)cc1N | i | -1.2
Nc1c(C(=O)CCC(=O)O)oc2ccc(Cl)cc12 | . | 3.7
COc1ccccc1-c1cc(C(=O)Nc2c(F)cc(F)cc2Br)no1 | . | ?
Cc1ccc2c(c1)c1c(n2CC(O)CNC(CO)(CO)CO)CCCC1 (stereo not given) | . | -2.1
COc1ccccc1-n1cc(C(=O)NCC(=O)N2CCN(c3ccccn3)CC2)c2ccccc2c1=O | . | -0.9
Cc1cccn2c(=O)c3cc(C(=O)NCc4ccccc4)c(=N)n(CCCN4CCOCC4)c3nc12 | . | 1.2
O=C(NCc1ccco1)C1CC(=O)N(c2ccc(F)cc2)C1 (stereo not given) | i | 2.1
Cc1ncoc1C(=O)Nc1ccc(Oc2ccccc2)cc1 | . | -0.2
COc1ccc2nc3oc(C(=O)N4CCCCC4)cc3cc2c1 | i | 0.3
O=S(=O)(c1ccc(F)c(Cl)c1)N1CCCC1 | i | -0.6
Cc1ccnc(NC(=O)C2CCN(S(=O)(=O)c3cccc4nsnc34)CC2)c1 | . | -0.3
Cc1sc2ncn3ncnc3c2c1C | i | 1.4
COc1ccc(C2C(=O)N(C3CCCCC3)CC(=O)N2C2CCCC2)cc1 (stereo not given) | . | -1.1
N=c1c(C(=O)NCc2ccc3c(c2)OCO3)cc2c(=O)n3ccccc3nc2n1Cc1cccnc1 | i | 27.9
N#CCSc1nc2[nH]ncc2c(=O)n1-c1ccccc1Br | . | -0.5
Nc1nc(CSc2nnnn2-c2ccc(F)c(Cl)c2)nc(N2CCOCC2)n1 | . | -0.8
CSc1ccc(CNc2ccccn2)cc1 | . | -0.1
CCn1c(C(=O)NCCCc2ccccc2)cc2sccc21 | . | 1.3
O=C1CC(c2ccc(F)cc2)C2=C(CCCC2=O)N1 (stereo not given) | . | 0.3

Additional structures follow:
SMILES	VCAM-1 up	Proteasome disasm
O=C(Nc1ccc2c(c1)OCCO2)NC1CCCCC1	i	0.7
Cc1cc(C(=O)N2CCN(c3ccccc3)CC2)no1	.	-0.8
C#CCSc1nc(-c2cccs2)ccc1C#N	i	-0.8
Cc1nc2sc(C(c3ccc(Cl)cc3)N3CC(C)OC(C)C3)c(O)n2n1 (stereo not given)	.	0.2
Cc1nnc(SCC(=O)Nc2ccc3c4c(cccc24)CC3)n1C	i	0.6
COc1ccc(C2(C(=O)Nc3c(C)n(C)n(-c4ccccc4)c3=O)CCCC2)cc1OC	i	-3.6
O=C1CCc2cc(S(=O)(=O)N3CCN(C(=O)c4ccco4)CC3)ccc2N1	.	0.6
COCCOC(=O)c1[nH]c2c(c1C)C(=O)C(C(=O)OC)C(C)C2 (stereo not given)	.	-0.4
CCOC(=O)c1[nH]c(C)c(C(=O)Nc2cccc(Cl)c2C)c1C	.	1.5
CCOC(=O)CN1Cc2cccc(C(=O)O)c2C1=O	.	-0.8
O=c1c2c(nc3cc(-c4ccccc4)[nH]n13)CCC2	.	-0.3
COc1ccc(NC(=O)C2CCCN2S(=O)(=O)c2ccc3c(c2)CCC(=O)N3)cc1Cl (stereo not given)	.	-1.2
CC(C)OC(=O)CSc1nnc(Cc2ccccc2)n1Cc1ccco1	i	1.0
Cc1ccc(S(=O)(=O)NC(CC(=O)N2CCOCC2)c2ccco2)cc1 (stereo not given)	.	0.3
O=C(NCCCN1CCN(c2ccc(F)cc2)CC1)c1cccc(N2CCCC2=O)c1	.	-0.9
COc1cccc(C=Nc2cc(C)on2)c1O	.	-0.7
O=C1CCCC2=C1C(c1ccncc1)c1c(nc(SCc3ccccc3)[nH]c1=O)N2 (stereo not given)	.	-0.2
CCNC(=O)CC1C(=O)N(c2ccccc2)C(=O)N1CCc1ccc(OC)cc1 (stereo not given)	.	4.2
CC(C)=CCSc1nnc(CCNC(=O)OC(C)(C)C)o1	i	-0.6
CCc1ccccc1NC1c2ccccc2C(=O)N1c1cc(C)ccn1 (stereo not given)	.	1.6
CN1C(=O)CSc2ccc(NC(=O)N3CCc4ccccc43)cc21	.	4.1
O=C(O)CCS(=O)(=O)Cc1ccccc1F	.	0.1
COc1cc(OC)cc(C(=O)N(CN2CCCC2=O)c2ccccc2OC)c1	.	-1.3
CCOC(=O)c1[nH]c(C)c(C(=O)NCCC2=CCCCC2)c1C	.	4.6
COc1ccccc1OCCCCNCCO	i	0.8
O=C(Nc1ccc2c(c1)OCCO2)c1ccco1	i	-1.1
Cc1csc(NC(=O)c2ccccc2C(=O)O)n1	i	2.3
O=C(O)[C@H](Cc1ccccc1)N1C(=O)c2ccncc2C1=O	.	-0.2
OC(CCN1CCCCC1)(c1ccccc1)c1ccccc1	i	0.1
CCOc1ccc(NC(=O)N(CCN2CCOCC2)Cc2ccc3c(c2)CCCN3CC)cc1	.	-1.2
